# Hedgehog: Drosophila hedgehog isoform A inhibitors, primary screen, biochemical, plate reader, single concentration (AID 588832). Biochemical plate reader assay, Hedgehog inhibition; active compounds read high. inhibition, % at 30.3 µM. 8,000 tested, under 10 active; in the data active means inhibition from about 57%;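 further: 0% = neutral control wells and 100% = positive control wells; cholesterol-driven self-cleavage of fly hedgehog protein by fluorescence polarization; read one hour after cholesterol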
# Active calls of the source: *.
# Start of the listing, in advance:
Hedgehog	Molecule
5	Cc1c(OCC(=O)N2CCC[C@@H]2C(=O)O)ccc2c3c(c(=O)oc12)CCC3
5	CC(C)C[C@H](N)C(=O)N1CCC(C(=O)N[C@H](C(=O)NCc2ccc(F)cc2)C(C)C)CC1

# The listing, previewed entries included:
Hedgehog	Molecule
5	Cc1c(OCC(=O)N2CCC[C@@H]2C(=O)O)ccc2c3c(c(=O)oc12)CCC3
5	CC(C)C[C@H](N)C(=O)N1CCC(C(=O)N[C@H](C(=O)NCc2ccc(F)cc2)C(C)C)CC1
24	CCCCCn1c(CCCNC(=O)CC)nc2ccccc21
-2	CCc1cc(=O)oc2cc(C)cc(O)c12
16	Cc1cc2c(cc1S(=O)(=O)CCC(=O)N(C)Cc1ccccc1)OCC(=O)N2
4	Cn1c(=O)cc(N2CCCCC2)[nH]c1=O
7	O=C(CC1CCCC1)NCCc1cn2ccccc2n1
10	Cc1cn2c(-c3ccc(Cl)cc3)nnc2s1
1	CC1CCN(C(=O)c2cc(-c3ccccc3O)on2)CC1
4	COc1ccc(CNC(=O)[C@H](Cc2ccccc2)NC(=O)C2CCN(C(=O)[C@H](C)N)CC2)cc1
-4	CCn1c(SCC(=O)N2CCN(c3ccccc3)CC2)nnc1-c1c[nH]c2ccccc12
5	CC(C)[C@H](NC(=O)N1CC(=O)Nc2ccccc21)C(=O)N[C@@H](Cc1ccccc1)C(=O)O
3	CCCSc1nc2c(c(=O)n1CC)SC(C)C2 (stereo unspecified)
11	CCC1CCCCN1CCCNC(=O)CC1Oc2ccc(C)cc2NC1=O (stereo unspecified)
-7	COC(=O)Cn1c(CCC(=O)O)ccc1-c1ccccc1
8	CCCNC(=O)CS(=O)Cc1nc(-c2ccccc2C)oc1C (stereo unspecified)
4	O=C(Cn1cc2c(n1)CCCC2)NCc1ccccn1
2	CC(C)C(NS(=O)(=O)c1ccc2c3c(cccc13)C(=O)N2)C(=O)O (stereo unspecified)
7	O=C(Nc1nnc(S(=O)(=O)N2CCOCC2)s1)c1ccccc1Cl
8	CN(C)c1oc(-c2ccccc2F)nc1C#N

# Laid out differently: results already given
COc1ccc(CNC(=O)[C@H](Cc2ccccc2)NC(=O)C2CCN(C(=O)[C@H](C)N)CC2)cc1
- Hedgehog = 4
CCn1c(SCC(=O)N2CCN(c3ccccc3)CC2)nnc1-c1c[nH]c2ccccc12
- Hedgehog = -4
CC(C)[C@H](NC(=O)N1CC(=O)Nc2ccccc21)C(=O)N[C@@H](Cc1ccccc1)C(=O)O
- Hedgehog = 5
CCCSc1nc2c(c(=O)n1CC)SC(C)C2 (stereo unspecified)
- Hedgehog = 3

# Continued.
Hedgehog	Molecule
2	CCCCCCn1c(CN2CCN(C(=O)c3ccco3)CC2)nc2c1c(=O)n(C)c(=O)n2C
11	Cn1cc(SCC(=O)NCc2ccc3c(c2)OCO3)c2ccccc21
0	CCOC(=O)N1CCC(NC(=O)c2cc3c(=O)n(C)c4ccccc4c3n2C)CC1
8	O=C(CSc1nnc(Cn2c(=O)sc3ccccc32)n1CCc1ccccc1)N1CCCC1
2	O=C(c1ccc2c(=O)n3c(nc2c1)CCCCC3)N1CCN(c2cccc(Cl)c2)CC1
10	COc1cccc(N2C(=O)C3CCCN3C2c2ccc(N(C)C)cc2)c1 (stereo unspecified)
3	Cc1csc(NC(=O)CSc2nc(C)nc3c2c(=O)n(C)c(=O)n3C)n1
7	CCOC(=O)N1CCN(C(=O)c2ccc3c(c2)N(CC)CCS3)CC1
10	CC(Oc1ccc2ccc(=O)oc2c1)C(=O)NC(Cc1c[nH]c2ccc(O)cc12)C(=O)O (stereo unspecified)
2	COc1cc(NS(=O)(=O)c2cc3c(cc2C)NC(=O)CO3)cc(OC)c1
9	CC1CC(C)CN(C(=O)c2nn(C)c3c2CSc2ccccc2-3)C1 (stereo unspecified)
5	COc1ccc(CNC(=O)c2nnn(Cc3ccc(OC)cc3)c2N)cc1
-4	Cc1nn(C)c(C)c1S(=O)(=O)N1CCCC(C(=O)NCCc2ccc(Cl)cc2)C1 (stereo unspecified)
-1	Cc1nc2sc(C(c3cccs3)N3CCOCC3)c(O)n2n1 (stereo unspecified)
11	COc1ccc(N2CCN(C(=O)CCCC(=O)c3ccccc3)CC2)cc1
-7	CC1CCN(C(=O)CSc2nnc(-c3ccco3)o2)CC1
10	CC(C)CCNC(=O)c1ccc2c(c1)N(Cc1ccccc1)C(=O)CS2=O (stereo unspecified)
7	Cc1cc2c(cc1S(=O)(=O)NCC(C)c1ccccc1)n(C)c(=O)c(=O)n2C (stereo unspecified)
-6	CCOc1ccc(CCNC(=O)c2cc(-c3ccccc3)c(N3CCOCC3)s2)cc1
5	COc1ccc(CN2C(=O)N(c3ccc(OC)cc3)C(=O)C2CC(=O)Nc2ccccc2)cc1 (stereo unspecified)

# (next part)
Hedgehog	Molecule
9	CC1C(=O)CC2C3(C)CCC2(C(C)C(=O)O)C(=O)C13 (stereo unspecified)
13	Cn1c(=O)c2c(SCC(=O)N3CCOCC3)nc(C3CC3)nc2n(C)c1=O
9	CCn1c(SCC(=O)Nc2ccc(Cl)cc2)nnc1C1CC1
4	Fc1cccc(CSc2nc3ccncc3[nH]2)c1
2	C=C1CC[C@@]23CC[C@]4(C)[C@@](OC2=O)([C@@H]3C1)[C@H]1O[C@H]1C1[C@@]2(C)CC[C@H](O)C(C)(C)C2CC[C@]14C (stereo partly specified)
10	Cn1c(=O)c2c(nc(CN3CCc4ccccc4C3)n2Cc2cccc(Cl)c2)n(C)c1=O
0	CC(C)C[C@H](NC(=O)[C@@H]1Cc2c([nH]c3ccccc23)C2c3ccccc3C(=O)N21)C(=O)NCC1CCCO1 (stereo partly specified)
0	COc1cccc(CNC(=O)CN(C)S(=O)(=O)c2ccc3c(c2)c(=O)n(C)c(=O)n3C)c1
6	CCc1ccc(NS(=O)(=O)c2cc3c(cc2C)n(C)c(=O)c(=O)n3C)cc1
-6	Cn1c(C(=O)NCCN2CCOCC2)cc2c(=O)n(C)c3ccccc3c21
2	CCn1c(=O)cc(C(=O)OC)sc1=Nc1ccc(F)c(F)c1
0	CC1CCC(NC(=O)c2cc3c(=O)n(C)c4ccccc4c3n2C)CC1 (stereo unspecified)
9	CC(=O)N1CCOc2cc(S(=O)(=O)N3CCN(c4ccccc4)CC3)c(Cl)cc21
5	CCOC(=O)N1CCC(N2C(=O)c3ccccc3C2Nc2cc(C(=O)OC)cc(C(=O)OC)c2)CC1 (stereo unspecified)
21	C=CCN(C1CCCCC1)S(=O)(=O)c1ccc2c(c1)oc(=O)n2C
12	Cc1cccc(N(C)c2cc(C)nc3ncnn23)c1
4	CN(C(=O)c1cc(S(=O)(=O)N2CCc3ccccc32)cn1C)C1CCCCC1
7	COc1ccc(CNS(=O)(=O)c2cc3c(cc2Cl)NC(=O)CO3)cc1
15	Cc1cc(Nc2ccc(F)cc2F)n2ncnc2n1
5	Cc1cc(NC(=O)CS(=O)(=O)c2cn(C)c3ccccc23)no1

# (further entries)
Hedgehog	Molecule
5	CN1CCN(CCCNC(=O)CCC(=O)N2CCOc3ccccc32)CC1
8	COc1ccc(OC)c(CCNC(=O)CN2C(=O)CC(C)(C)S(=O)(=O)c3ccccc32)c1
2	CSCCC(NS(=O)(=O)c1ccc2c(c1)oc(=O)n2C)C(=O)NC1CCCc2ccccc21 (stereo unspecified)
3	CN(C(=O)c1cnc2n(c1=O)CCS2)C1CCCCC1
5	CC(C)=CCOc1ccc2ccc(=O)oc2c1
5	COc1ccc(CNC(=O)COc2cc3c(c4oc(=O)cc(C)c24)CCC(C)(C)O3)cc1
8	COc1cc2c(cc1OC)C1=C(C#N)CN(C3CCCCC3)CN1CC2
15	Cc1cc(C)cc(NC(=O)CSc2nnc(Cc3cccn3C)n2-c2ccc(F)cc2)c1
-1	Cc1ccn2cc(CNC(=O)c3cccs3)nc2c1
21	Cc1ccc2c(c1)NC(=O)C(CC(=O)O)O2 (stereo unspecified)
9	CC1=C(C(=O)NC(C)c2ccc3c(c2)OCCO3)C2(CCC(C)CC2)OC1=O (stereo unspecified)
3	COc1cc(NC2c3ccccc3C(=O)N2c2ccc(C)cn2)cc(OC)c1OC (stereo unspecified)
5	Cn1cc(S(=O)(=O)Nc2ccc(F)cc2F)c(=O)n(C)c1=O
5	O=C(Cn1cc2c(n1)CCCC2)NCCCN1CCCC1
13	Cc1ccnc(SCCn2c(N3CCC(C)CC3)nc3c2c(=O)[nH]c(=O)n3C)n1
2	COc1ccc(CCNC(=O)CCC(=O)N2CC(C)Oc3ccc(Cl)cc32)cc1OC (stereo unspecified)
5	CC(=O)N1CCN=C1SCc1ccc(F)cc1
4	CCc1cccc(NC(=O)CSC2=NS(=O)(=O)c3ccccc32)c1
7	Cc1c(C)c2c(OCC(=O)NCc3ccccn3)cc3c(c2oc1=O)CCC(C)(C)O3
8	COc1ccc(N(CC(=O)NCc2ccccc2)S(=O)(=O)c2c(C)nn(C)c2C)cc1

# Additional entries follow:
Hedgehog	Molecule
25	Cn1c(Cn2c(=O)sc3ccccc32)nnc1SCC(=O)NCC1CCCO1 (stereo unspecified)
4	COc1ccc(CCC(=O)O)c(O)c1
4	CCOC(=O)c1cccc(NC2c3ccccc3C(=O)N2Cc2ccco2)c1 (stereo unspecified)
7	COc1ccc(-c2cc(=O)oc3cc(OCC(=O)NCc4ccccn4)ccc23)cc1
3	CC(=O)OCC(O)C1(O)CCC2C3CCC4=CC(=O)CCC4(C)C3C(O)CC21C (stereo unspecified)
29	COc1ccc(NC(=O)C2CCCN2S(=O)(=O)c2ccc3c(c2)CCC(=O)N3)cc1 (stereo unspecified)
26	COc1ccc(C)cc1NC(=O)c1nnn(Cc2cccc(F)c2)c1N
10	O=C(Cn1ncc2c(=O)oc3ccccc3c21)NCCCN1CCCC1=O
7	CCOC(=O)c1cnc2c(C#N)c(C)nn2c1-c1ccccc1
17	Cc1ccc(C)c(NC(=O)CSc2nnc(Cc3cccn3C)n2-c2ccc(F)cc2)c1
2	C=CCNC(=O)C(=O)c1c(-c2ccccc2)[nH]c2ccccc12
6	Cc1nc2sc(C(c3ccco3)N3CCN(C(c4ccccc4)c4ccccc4)CC3)c(O)n2n1 (stereo unspecified)
0	COC(=O)C1=C(C)Nc2ccc(C)cc2S1
7	CCCCNC(=O)CS(=O)Cc1nc(-c2cccs2)oc1C (stereo unspecified)
5	Cc1cc2ccccc2n1CCNC(=O)COc1ccc2ccccc2c1
5	COc1ccc(NC(=O)C(=O)NCCN2CCN(C(=O)c3ccc(C(C)(C)C)cc3)CC2)cc1
4	COc1ccc(-c2[nH]c(-c3ccccc3)nc2SCC(=O)NC2CCCC2)cc1
5	Cn1c(=O)c2c(nc(CN3CCN(Cc4ccccc4)CC3)n2Cc2ccc(F)cc2)n(C)c1=O
11	COc1cc(O)c(CC=C(C)C)c(O)c1C(=O)CCc1ccc(O)cc1
7	Cc1ccc(-n2nnc3c(=O)n(CC(=O)OCc4ccccc4)cnc32)cc1

# Next part.
Hedgehog	Molecule
17	O=C(O)c1ccc(NS(=O)(=O)c2ccc3c(c2)OCCO3)cc1
7	COc1ccc(C2=NS(=O)(=O)N(C)C(C(=O)N3CCOCC3)=C2)cc1
4	COc1ccc(CNC(=O)c2cc3c(C)nc4ccccc4c3o2)c(OC)c1
4	CCOC(=O)N1CCN(C(=O)c2ccc3c(c2)N(Cc2ccc(F)cc2)CCS3)CC1
7	COc1ccc2[nH]c3c(c2c1)CCN1C(=O)N([C@@H](C)C(=O)NCCc2ccc(OC)c(OC)c2)C(=O)[C@]31C
20	CC1=C(C)CC2C(=O)N(c3cccc4ccccc34)C(=O)C2C1 (stereo unspecified)
9	CCc1ccc(NC(=O)[C@H](Cc2ccccc2)NC(=O)C2CCN(C(=O)[C@@H](N)CC(C)C)CC2)cc1
-4	COc1ccc2c(c1OC)C(=O)N1C2SC(C)(C)[C@H]1C(=O)NC1CC1 (stereo partly specified)
25	COc1cc2c(cc1OC)C(C)N(C(=O)c1cc3c(s1)-c1c(C)cccc1OC3)CC2 (stereo unspecified)
8	CCOCCn1c(CN2CCCCC2)nc2c1c(=O)n(C)c(=O)n2C
0	COCCCN(C(=O)Cn1ncc2c(=O)oc3ccc(C)cc3c21)C(C)c1ccncc1 (stereo unspecified)
10	O=C(CCC(=O)N1CCOc2ccccc21)N1CCOCC1
8	O=C1Cc2cc(S(=O)(=O)N3CCN(c4ccccc4)CC3)ccc2N1
6	CCOC(=O)NCc1ccc2[nH]c(C)cc2c1
2	CSC1=NCCN1C(=O)c1ccc(Br)o1
4	Cc1cc2c(cc1S(=O)(=O)CCC(=O)NC1CCC(C)CC1)OCC(=O)N2 (stereo unspecified)
5	COc1ccccc1N1CCN(C(=O)CSc2nc3ccccc3nc2N2CCCCC2)CC1
5	Cc1csc2nc(CNS(=O)(=O)N(C)C)cn12
7	CCOc1ccc(NC2c3ccccc3C(=O)N2Cc2ccc3c(c2)OCO3)cc1 (stereo unspecified)
7	Cn1c(=O)cc(N2CCOCC2)[nH]c1=O

# The list goes on.
Hedgehog	Molecule
25	COc1ccc(N2C(=O)C3CCCN3C2c2ccccc2Cl)cc1 (stereo unspecified)
2	COc1ccc(-c2nc(SCC(=O)Nc3nccs3)c(-c3ccc(Cl)cc3)[nH]2)cc1
2	CCCNC(=O)C1CCN(S(=O)(=O)c2ccc3[nH]c(=O)ccc3c2)CC1
3	CN1C(=O)C(C)(C)c2cc(S(=O)(=O)NCC(=O)NCc3ccccc3)ccc21
3	COc1cc(C(c2sc3nc(C)nn3c2O)N2CCN(c3ccccc3)CC2)cc(OC)c1OC (stereo unspecified)
0	CC(C)=CCc1c(O)ccc(C2COc3c(CC=C(C)C)c(O)cc(O)c3C2=O)c1O (stereo unspecified)
4	Cc1ccccc1C(=O)Nc1nnc(S(=O)(=O)N2CCCCC2)s1
11	O=C(Cc1cccs1)NCCn1ccc2ccccc21
2	CCN(Cc1ccccc1)c1ccccc1

# Given field by field: 3 of the compounds above.
O=C(Cc1cccs1)NCCn1ccc2ccccc21
  Hedgehog: 11
COc1cc(C(c2sc3nc(C)nn3c2O)N2CCN(c3ccccc3)CC2)cc(OC)c1OC (stereo unspecified)
  Hedgehog: 3
CN1C(=O)C(C)(C)c2cc(S(=O)(=O)NCC(=O)NCc3ccccc3)ccc21
  Hedgehog: 3

# High-throughput results as filed in PubChem.

# Only part of the results is shown, so the mix of outcomes need not match the whole.
